Assay outcomes from PubChem BioAssay.
gsp agonist: gsp mutant agonism | gsp mutant cells, cAMP HTRF, 30 min; control for the full effect not named in the record | Potency, µM (series often up to 76.9 µM), inactives show top-dose activation (cAMP increase), hits mostly activators | 340,000 tested, 0.13% active | AID 624287; active = well fitted activation curve with a large enough effect; inconclusive = small, poorly fitted or top-dose-only effect, or another doubt; inactive = no such curve, though single readings can be large or run the other way; cell line not stated here;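 further: phosphodiesterase inhibitor Ro 20-1724 added with compounds to block cAMP breakdown; potency means the concentration at half of the fitted maximal effect; nearly all actives have a fitted effect of over 60% in size; about a fifth of the inactives were tested at one dose only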
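Cells stably selected in G418 were plated at 2000/well, grown 16-24 hr, then given compounds in DMSO with the PDE inhibitor […] (300 uM solution added) for 30 min at 37C; cAMP was read by HTRF.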
Menin MLL FP FL: displaces fluorescein MLL peptide from human menin; AID 1766; FP activity change, % at 61.4 µM; 290,000 tested, under 10 active; Fluorescence polarization, fluorescein-MLL peptide displacement from menin; inconclusive = falling polarisation curve, or a change in total fluorescence; inactive = total fluorescence flat and polarisation flat or rising; no compound was filed as active; the % refers to the polarisation; negative = inhibition;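 further: % of control where 0% means no effect; inhibitors lower the polarisation; unlabelled MLL peptide was the positive control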
ClpP mod: qHTS Assay for Activators of ClpP; ATP-dependent Clp protease proteolytic subunit (Bacillus subtilis (strain 168)), P80244; purified B. subtilis ClpP, FRET peptide cleavage, 20 min; Potency, µM (doses to about 57.5 µM), inactives show at the highest dose activity change, negative = active; 340,000 tested, 1.9% active; active = well fitted falling curve with a large enough effect; inconclusive = small, poorly fitted or top-dose-only effect; inactive = no such curve, though single readings can be large or run the other way; further: potency means the concentration at half of the fitted maximal effect; the source files actives as falling curves though it sought activators and does not explain the sign; nearly all actives have a fitted effect of over 65% in size; many hits overshoot -100%
Target sequence (P80244 whole entry, looked up): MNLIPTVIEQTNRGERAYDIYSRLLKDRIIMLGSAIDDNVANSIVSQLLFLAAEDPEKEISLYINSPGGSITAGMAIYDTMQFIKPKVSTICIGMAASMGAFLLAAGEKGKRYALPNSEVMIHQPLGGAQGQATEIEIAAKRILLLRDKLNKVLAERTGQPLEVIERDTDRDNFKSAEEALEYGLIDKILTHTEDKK
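Purified B. subtilis ClpP, 10 microg/mL final in Tris/HCl pH8 with KCl, BSA, glycerol and Tween-20, cleaved an Abz/nitrotyrosine-quenched decapeptide. Fluorescence (ex 320, em 430) was read at 0 and 20 min at room temperature. Delta was normalized to 5.8 microM ADEP and DMSO/no-enzyme controls.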
TRPV1 potentiator: human TRPV1 potentiation; Q8NER1; TRPV1-expressing cells, Fluo-8 calcium influx, capsaicin EC20 potentiation; host cell line not named in the record; control for the full effect not named in the record; potentiation, % at 8.33 µM; 320,000 tested, 0.02% active; AID 540277; active means potentiation above 80%; inconclusive means 30% to 80%; inactive means below 30%; further: 0% is about no effect
Target sequence (Q8NER1 whole entry, looked up): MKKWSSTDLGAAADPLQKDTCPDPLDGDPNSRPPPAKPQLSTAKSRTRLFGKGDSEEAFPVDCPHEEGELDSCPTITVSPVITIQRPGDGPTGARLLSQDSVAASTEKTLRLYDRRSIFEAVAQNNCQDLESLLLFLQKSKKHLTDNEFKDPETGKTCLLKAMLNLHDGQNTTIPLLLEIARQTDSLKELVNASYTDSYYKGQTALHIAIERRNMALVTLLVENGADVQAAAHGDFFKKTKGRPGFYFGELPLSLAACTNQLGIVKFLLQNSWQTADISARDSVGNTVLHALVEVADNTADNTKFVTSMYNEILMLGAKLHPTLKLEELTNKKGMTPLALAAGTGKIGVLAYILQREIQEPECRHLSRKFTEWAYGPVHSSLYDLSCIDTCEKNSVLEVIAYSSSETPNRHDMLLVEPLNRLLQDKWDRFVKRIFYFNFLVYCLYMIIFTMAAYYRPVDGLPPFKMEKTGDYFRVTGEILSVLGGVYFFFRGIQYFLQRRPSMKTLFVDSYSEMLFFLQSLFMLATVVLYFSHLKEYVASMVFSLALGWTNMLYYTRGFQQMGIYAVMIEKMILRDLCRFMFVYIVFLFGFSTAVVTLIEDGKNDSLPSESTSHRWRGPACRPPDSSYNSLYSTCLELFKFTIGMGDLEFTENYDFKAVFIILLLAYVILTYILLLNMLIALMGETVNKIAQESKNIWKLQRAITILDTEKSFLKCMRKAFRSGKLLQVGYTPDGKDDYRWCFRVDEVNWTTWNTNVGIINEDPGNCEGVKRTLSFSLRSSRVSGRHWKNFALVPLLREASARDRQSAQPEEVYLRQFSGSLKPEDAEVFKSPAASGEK
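Cells expressing TRPV1 were dye-loaded with Fluo-8 and read kinetically: 10 s baseline, 3 min after compound (agonist portion), then 2 min after EC20 capsaicin (allosteric enhancer portion). Calcium-bound dye fluorescence at 480/520 nm.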
gsp antag: antagonizes gsp, the McCune-Albright syndrome mutation; gsp-mutant cells, cAMP HTRF, 30 min; control for the full effect not named in the record; Potency, µM (doses to about 76.9 µM), for inactives: at the highest dose activity change, negative = inhibition, most hits filed as inhibitors; 340,000 tested, 0.4% active; AID 624288; active = falling curve of any shape with a large fitted effect; inconclusive = falling curve, mostly with a smaller effect; inactive = flat or rising curve; cell line not stated here;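 further: intracellular cAMP measured with PDE inhibitor Ro 20-1724 present during compound exposure; potency means the concentration at half of the fitted maximal effect; on the % scale 0 is the no-effect control and ±100 the full control effect; nearly all actives have a fitted effect of over 65% in size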
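Cells, 2000/well, grown 16–24 h in DMEM 10% FBS with 0.5 mg/ml G418, then compounds plus […] (300 uM addition stock), 30 min at 37C. cAMP read by HTRF (cAMP-d2 and anti-cAMP antibody-K in lysis buffer) after 30 min RT.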
CtBP-E1A inh: CtBP/E1A binding inhibition; AID 651724; AlphaScreen GST-E1A/His-CtBP binding, 1536-well; stronger effect = lower value; control for the full effect not named in the record; 340,000 tested, 0.49% active; activity change, % (no concentration beside the values); in the data active means activity change below about -65%; inconclusive means about -30% to -65%; inactive means above about -30%; further: on the % scale 0 is the no-effect control and ±100 the full control effect; compound concentration not given in the record
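GST-E1A and His-tagged CtBP (125 nM each as 5X stock) were preincubated with pin-transferred compound for 2 h at 37 °C in the dark, then glutathione donor and nickel acceptor beads were added for 1 h before AlphaScreen reading.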
Sfp PPTase inh: blocks B. subtilis Sfp PPTase activity; AID 1490; Potency, µM, for inactives: max response, negative = inhibition, actives largely listed as inhibitors; Biochemical Sfp PPTase activity, qHTS; 310,000 tested, 3.5% active; active means well fitted inhibition curve with a large enough effect; inconclusive means small, poorly fitted or top-dose-only effect, or another doubt; inactive means no such curve, though single readings can be large or run the other way;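 further: the enzyme is Sfp with the accession as filed and its product quenches rhodamine fluorescence; potency means the concentration at half of the fitted maximal effect; 0% = enzyme reaction without inhibitor and -100% = no enzyme wells; top concentration of the series not given in the record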
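Compounds were incubated with enzyme (final 15 nM) for 15 min at room temperature before substrate addition started the reaction. Fluorescence at 525 nm excitation, 598 nm emission was recorded immediately and after 30 minutes.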
* hit, by the source's call; [ ] = remark or other dose.

COc1cc(C)cc(C(=O)C=Cc2ccccc2)c1O was read as gsp agonist -58%[inhibitor], gsp antag 0% and CtBP-E1A inh -5.
`CC1=NN(c2ccccc2)C(=O)C1C(=O)c1ccc(Cl)cc1` (stereo not given) gave gsp agonist 22%, Menin MLL FP FL 1.1, ClpP mod 2.1%, gsp antag -10%, CtBP-E1A inh 25 and Sfp PPTase inh 11%.
`COc1cccc(NC(=O)c2ccc(S(=O)(=O)N3CCCC3)cc2)c1` gave gsp agonist -8%[15.4 µM], Menin MLL FP FL 1.1, TRPV1 potentiator -3, gsp antag 6%, CtBP-E1A inh 0 and Sfp PPTase inh 19%.
For CCCc1c(C(=O)N/N=C/c2ccco2)nnn1-c1nonc1N the results were gsp agonist 20%, Menin MLL FP FL 1.6, ClpP mod -13%, TRPV1 potentiator -31, gsp antag 8%, CtBP-E1A inh -3 and Sfp PPTase inh 2%.
For CCn1nc(C)c(/C=N/NC(=O)c2ccc3c(c2)c(C)c(C)n3Cc2ccccc2)c1C the results were gsp agonist 8%[15.4 µM], Menin MLL FP FL 0.1, ClpP mod 10µM*, TRPV1 potentiator 2, gsp antag 10%, CtBP-E1A inh 0 and Sfp PPTase inh -10%.
CC(=O)c1ccc(NC(=O)CSc2ccc3nnc(-c4ccccn4)n3n2)cc1 was read as gsp agonist inconclusive, Menin MLL FP FL 1.4, ClpP mod -3.0%, TRPV1 potentiator -9, gsp antag 13%, CtBP-E1A inh inconclusive and Sfp PPTase inh 8%.
Screening Cc1[nH]c2ccccc2c1C(=O)CN1CCC(C(N)=O)(N2CCCCC2)CC1 returned gsp agonist -28%, Menin MLL FP FL -4.9, ClpP mod -5.8%, TRPV1 potentiator 2, gsp antag 7%, CtBP-E1A inh 0 and Sfp PPTase inh -6%.
`O=C(COc1ccc(Cl)cc1)NCCC1=CCCCC1` gave gsp agonist -7%, Menin MLL FP FL 0.8, ClpP mod -0.3%, TRPV1 potentiator -14, gsp antag 5%, CtBP-E1A inh 7 and Sfp PPTase inh 10%.
Screening CC(O)[C@H]1CNC(=O)C(=O)N1CCCCC1CCCCC1 (stereo not given in full) returned gsp agonist -3%, Menin MLL FP FL 0.8, ClpP mod 0.3%, TRPV1 potentiator -10, gsp antag 9%, CtBP-E1A inh 6 and Sfp PPTase inh 8%.
`Oc1ccc(-c2csc(NCc3ccco3)n2)cc1` gave gsp agonist -15%, Menin MLL FP FL 2.5, ClpP mod -0.5%, TRPV1 potentiator 2, gsp antag -19%, CtBP-E1A inh -5 and Sfp PPTase inh 45µM*.
For O=C(/C=C/c1ccccc1)c1ccoc1 the results were gsp agonist -53%[inhibitor], Menin MLL FP FL 0.7, ClpP mod -2.7%, TRPV1 potentiator 5, gsp antag 5%, CtBP-E1A inh 8 and Sfp PPTase inh 13%.
CC(C)c1nc2sc3ccccc3c(=O)c2c(=O)n1Cc1ccccc1 was read as gsp agonist -12%, Menin MLL FP FL -4.3, ClpP mod 0.8%, TRPV1 potentiator -2, gsp antag -4% and Sfp PPTase inh 6%.

Three entries picked at random from those above, as already listed:
`COc1cccc(NC(=O)c2ccc(S(=O)(=O)N3CCCC3)cc2)c1` gave gsp agonist -8%[15.4 µM], Menin MLL FP FL 1.1, TRPV1 potentiator -3, gsp antag 6%, CtBP-E1A inh 0 and Sfp PPTase inh 19%.
`Oc1ccc(-c2csc(NCc3ccco3)n2)cc1` gave gsp agonist -15%, Menin MLL FP FL 2.5, ClpP mod -0.5%, TRPV1 potentiator 2, gsp antag -19%, CtBP-E1A inh -5 and Sfp PPTase inh 45µM*.
`CC1=NN(c2ccccc2)C(=O)C1C(=O)c1ccc(Cl)cc1` (stereo not given) gave gsp agonist 22%, Menin MLL FP FL 1.1, ClpP mod 2.1%, gsp antag -10%, CtBP-E1A inh 25 and Sfp PPTase inh 11%.

Carrying on:
For Cc1ccccc1C(=O)N1CCc2cc(-c3nc(NC(=O)Cc4ccc5c(c4)OCO5)sc3C)ccc21 the results were gsp agonist 11%, Menin MLL FP FL 0.2, ClpP mod -10.0%, TRPV1 potentiator -4, gsp antag 1%, CtBP-E1A inh -22 and Sfp PPTase inh -11%.
Cc1ccc(C(=O)N/N=C2\CCSC2)cc1[N+](=O)[O-] was read as gsp agonist -2%, Menin MLL FP FL -6.2, ClpP mod 1.1%, TRPV1 potentiator -6, gsp antag 9%, CtBP-E1A inh -3 and Sfp PPTase inh -25%.
For COc1cc(OC)c(-c2nn3c(-c4ccncc4)nnc3s2)cc1OC the results were Menin MLL FP FL 0.4, TRPV1 potentiator 2 and Sfp PPTase inh 10%.
CNC(=S)NNC(=O)COc1ccccc1C was read as gsp agonist 3%, Menin MLL FP FL 5.5, ClpP mod 0.2%, TRPV1 potentiator 8, gsp antag -1%, CtBP-E1A inh 37 and Sfp PPTase inh -3%.
Screening O=C1NC(=S)NC1=Cc1ccc(Cl)cc1Cl returned gsp agonist -8%, gsp antag -9% and CtBP-E1A inh -12.
Screening Cc1cccc(NC(=O)C2CCCN(S(=O)(=O)c3cccs3)C2)c1C (stereo not given) returned gsp agonist -3%, Menin MLL FP FL -1.7, TRPV1 potentiator 3, gsp antag -1%, CtBP-E1A inh -1 and Sfp PPTase inh 2%.
Cc1ccc(C(=O)O/N=C(\N)Cc2cccs2)cc1[N+](=O)[O-] was read as gsp agonist 1%, ClpP mod -0.6%, TRPV1 potentiator 15, gsp antag -2%, CtBP-E1A inh -5 and Sfp PPTase inh 1%.
Screening COc1ccc2[nH]c3c(c2c1)CCN1C(=O)N([C@@H](C)C(=O)NCc2ccco2)C(=O)[C@]31C returned Menin MLL FP FL -6.2, ClpP mod 1.5%, TRPV1 potentiator -8, gsp antag -8%, CtBP-E1A inh -7 and Sfp PPTase inh 4%.
C/C(=N\NC(=S)NC(C)C)c1ccccc1 was read as gsp agonist 1%, Menin MLL FP FL 0.0, ClpP mod -0.8%, TRPV1 potentiator -13, gsp antag 19%, CtBP-E1A inh -17 and Sfp PPTase inh -3%.
For C[C@H](CO)N1C[C@H](C)[C@@H](CN(C)C(=O)C2CC2)OCc2cnnn2CCCC1=O the results were gsp agonist -46%[inhibitor], ClpP mod -2.3% and CtBP-E1A inh -4.
COc1ccccc1NC(=O)CN(c1ccccc1OC)S(=O)(=O)c1ccccc1 was read as gsp agonist -3%, Menin MLL FP FL 0.2, ClpP mod -0.9%, TRPV1 potentiator 1, gsp antag -8%, CtBP-E1A inh -6 and Sfp PPTase inh 14%.
CCC(C(=O)NCCC1=CCCCC1)c1ccccc1 (stereo not given) was read as gsp agonist 24%, Menin MLL FP FL -0.4, ClpP mod inconclusive, TRPV1 potentiator -4, gsp antag -2%, CtBP-E1A inh 19 and Sfp PPTase inh 13%.
`COc1cc(C(=O)N2C(=O)CCC2=O)cc(OC)c1OC` gave gsp agonist 4%[15.4 µM], Menin MLL FP FL 5.9, ClpP mod -27%, TRPV1 potentiator 5, gsp antag -4%, CtBP-E1A inh -11 and Sfp PPTase inh 1%.
For Cn1c(CCC(=O)Nc2ccccc2F)nnc1SCC(=O)Nc1ccccc1Cl the results were gsp agonist 3%, Menin MLL FP FL 0.3, ClpP mod 0.2%, TRPV1 potentiator -7, gsp antag -3%, CtBP-E1A inh 0 and Sfp PPTase inh -9%.
Screening CC(Sc1nc(N)cc(=O)[nH]1)C(=O)NNC(=O)c1cccc(Cl)c1 (stereo not given) returned gsp agonist -2%, ClpP mod 0.0%, TRPV1 potentiator -1, gsp antag 8% and CtBP-E1A inh 3.
COc1cccc(-c2cc(C(F)(F)F)nc(-n3cncn3)n2)c1 was read as gsp agonist 1%, Menin MLL FP FL 2.6, ClpP mod -10%, TRPV1 potentiator 7, gsp antag -1%, CtBP-E1A inh -5 and Sfp PPTase inh -6%.
`Cc1csc(NC(=O)Cn2nc(C)c([N+](=O)[O-])c2C)n1` gave gsp agonist -7%, Menin MLL FP FL -1.5, TRPV1 potentiator 5, gsp antag 6%, CtBP-E1A inh 1 and Sfp PPTase inh 14%.
Screening O=S(=O)(/N=C(\c1ccccc1)N1CCOCC1)c1ccc(Cl)cc1 returned gsp agonist -11%, Menin MLL FP FL 0.6, ClpP mod inconclusive, TRPV1 potentiator -3, gsp antag 0%, CtBP-E1A inh 16 and Sfp PPTase inh 1%.
COc1ccccc1-n1c(=O)c2c3c(sc2n2c(SC)nnc12)CCC3 was read as gsp agonist 1%, ClpP mod 0.6%, gsp antag -16% and CtBP-E1A inh -1.
Cn1c(=O)cc(OCCCC(=O)NCc2ccc3c(c2)OCO3)c2ccccc21 was read as gsp agonist 12%, Menin MLL FP FL -0.3, ClpP mod -3.8%, TRPV1 potentiator 16, gsp antag -6%, CtBP-E1A inh -15 and Sfp PPTase inh 6%.
For Cc1occc1-c1nnc(SCC(=O)c2cc3ccccc3oc2=O)o1 the results were gsp agonist inconclusive, Menin MLL FP FL inconclusive, ClpP mod 28µM*, TRPV1 potentiator 16, gsp antag 8%, CtBP-E1A inh -8 and Sfp PPTase inh -19%.
For CCOc1ccc(C(=O)NCCNC(=O)c2ccc(OCC)cc2)cc1 the results were gsp agonist -37%[inhibitor], Menin MLL FP FL -5.5, TRPV1 potentiator 13, gsp antag 0%, CtBP-E1A inh -3 and Sfp PPTase inh 8%.
`C[C@@H]1CN([C@@H](C)CO)C(=O)c2cccc(NC(=O)c3nc4ccccc4s3)c2O[C@@H]1CN(C)CC1CC1` gave ClpP mod 0.3%, gsp antag 3% and CtBP-E1A inh -8.
O=C(N/C(=C\c1ccco1)C(=O)N1CCCC1)c1cccs1 was read as gsp agonist 6%, Menin MLL FP FL -0.2, ClpP mod -1.8%, TRPV1 potentiator 6, gsp antag -1%, CtBP-E1A inh -7 and Sfp PPTase inh inconclusive.
For COc1cc2c(cc1OC)C(C)N(C(=O)c1cc3c(C)cc(C)cc3[nH]1)CC2 (stereo not given) the results were gsp agonist 19%, ClpP mod -9.9%, TRPV1 potentiator -3, gsp antag -4%, CtBP-E1A inh -8 and Sfp PPTase inh inconclusive.
